From PubChem
RanGTP-Impb inh = disruptors of Ran-importin-beta complex formation – biochemical, FRET, CFP-Ran, YFP-importin-beta, homogeneous, primary screen. cell-free CFP-Ran/YFP-importin-beta FRET ratio. inhibition, % (test concentration not listed). 1.1% of 300,000 active;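 active = most replicates above 15%; inconclusive = exactly half above 15%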;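 also: 0% = DMSO wells and 100% = Ran loaded with GDP instead of GTP; wells of about 40 µL received 100 nL stock; the first replicate is given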
B2AR ag = human beta-2 adrenergic receptor agonism by FAP | response, % (concentration not given with the values) | 0.43% of 340,000 active | Am2.2-beta2AR cells, FAP receptor internalization, flow cytometry; reference of the scale not given here | P07550;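 active = response above a set limit, near 3 SD of response in nonfluorescent compounds, cut at about 42% in these data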;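 also: stock transfer was 100 nL into about 11 µL; a reference agonist was the positive control; negative values mostly stem from fluorescent compounds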
Calb FLC = C. albicans growth modulation with fluconazole; C. albicans CaCi-2 (fluconazole-resistant clinical isolate) + fluconazole, Alamar Blue growth, 48 h; growth inhibition, % (test concentration not listed); 0.57% of 300,000 active; AID 1979;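 active = most replicates above 75%; inconclusive = exactly half above 75%; inactive = most below 75%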;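 also: all wells also contain fluconazole at 8 µg/ml as a sub-toxic cotreatment; 0% = median of DMSO wells and 100% = median of geldanamycin control wells; wells of about 8 µL received 7.5 nL stock; the first replicate is given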
ALR inh = inhibitors of human sulfhydryl oxidase ALR; P55789; purified ALR, DTT oxidation, H2O2 HRP-luminol luminescence; inhibition, % (test concentration not listed); 3.8% of 290,000 active; AID 485317;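 active = mean and each replicate at 75% or more; inconclusive = only one of the two met; inactive = neither met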;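 also: stock transfer was 7.5 nL into about 7.5 µL; 0% = neutral wells and 100% = wells with inactivated enzyme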
Target sequence (P55789 whole entry, looked up): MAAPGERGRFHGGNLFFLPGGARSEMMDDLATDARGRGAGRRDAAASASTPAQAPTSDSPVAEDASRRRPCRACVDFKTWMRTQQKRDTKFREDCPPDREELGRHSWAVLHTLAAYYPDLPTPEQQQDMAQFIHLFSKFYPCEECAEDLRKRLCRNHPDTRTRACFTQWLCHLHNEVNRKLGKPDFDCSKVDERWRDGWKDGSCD
LANA-H2B inh = blocks KSHV LANA binding to histone H2A/H2B. Q9QR71. cell-free LANA-H2A/H2B peptide, fluorescence polarization. inhibition, % (concentration not given with the values). 0.6% of 320,000 active. AID 2629; in the data active = inhibition mostly above about 10%, no sharp cut-off; inactive = mostly below about 6.7%;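 also: stock transfer was 7.5 nL into about 10 µL; 0% = median of vehicle wells and 100% = median of positive control wells; one replicate is shown; the record names a cut of 25% in any replicate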
Vif TR-FRET = inhibitors of Vif binding to APOBEC3G peptide, primary screen, biochemical, TR-FRET, GST-Vif 1-94, biotin-A3G peptide, dose response retest (AID 1117319); 0.57% of 260,000 active; TR-FRET GST-Vif / biotin-A3G peptide binding; higher % means a stronger effect; test concentration not given here; strong numbers were not always called active; one-dose inhibition, %; IC50 in µM for titrated hits;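 active = above the screen mean plus three standard deviations and confirmed in dose response; inconclusive = results disagree or hit not tested in dose response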;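 also: Vif residues 1-94 fused to GST binding biotinylated APOBEC3G peptide 110-148; 0% = full assay without inhibitor and 100% = GST in place of GST-Vif; retest series ran down from 100 µM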
HNF4A DNA FP = change in binding of human HNF4 alpha to DNA | P41235 | HNF4a-FITC DNA binding, fluorescence polarization, 1 h | activity change, % at 10 µM | 0.3% of 360,000 active | AID 1224865; in the data active = activity change above about 30%, passing the limit was not always enough;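 also: controls were the assay level and a saturating level of protein; the project sought stronger binding though the title names inhibitors; some compounds called inactive have numbers as strong as hits; positive values seem to mean higher polarization but the record does not say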
An asterisk follows results filed as active; ? = inconclusive; nt = not tested or not shown.

Order of values – Calb FLC, HNF4A DNA FP, LANA-H2B inh, B2AR ag, Vif TR-FRET, RanGTP-Impb inh, ALR inh
O=[N+]([O-])c1ccccc1S(=O)(=O)Nc1ccn(Cc2c(F)cccc2Cl)n1
    8, -2.7, -5.7, 3, 7%, 6.2, 8
CN(c1cccc(NC(=O)c2ccccc2N(C)S(=O)(=O)c2ccccc2)c1)S(C)(=O)=O
    5, -1.1, -2.5, -10, -1%, -1.3, 0
COc1ccc(C2C(C(=O)c3sc(C)nc3C)=C(O)C(=O)N2CCN(C)C)cc1OC (centres undefined)
    15, 0.4, -0.9, 1, -4%, -1.0, -3
Cc1onc(-c2ccccc2)c1NC(=O)N(CCC#N)Cc1ccccc1
    -4, -1.1, 2.2, -6, 11%, -3.4, -10
C=CC#CC[N+]1(CC#Cc2ccccc2)CCOCC1
    10, 189, nt, 72*, ?, 1.4, nt
CCOc1ccc(OCCOC(=O)CN2C(=O)NC3(CCCC3)C2=O)cc1
    0, -0.3, -4.8, 2, -1%, -1.2, nt
S=c1[nH]nc(-c2ccccn2)n1/N=C/c1ccc(Br)s1
    ?, -0.2, 4.1, 5, 6%, 0.5, 96*
Oc1ccc(Cl)cc1CNCc1cccc2ccccc12
    nt, 2.1, -2.7, -2, nt, nt, nt
OC(CNCCN1CCNCC1)Cc1ccccc1 (centres undefined)
    nt, -4.0, nt, -42, -6%, nt, nt
Cc1ccc(-n2c(-c3ccc(Cl)cc3)c[n+]3c2CCC3)cc1
    5, -4.0, -3.9, -1, -8%, 2.6, -12
Fc1cccc(Cl)c1Cn1nnc(-c2ccc3c(c2)OCO3)n1
    -23, -1.0, 8.1, -3, -1%, -11, 0
Cc1ccc(-c2cc(=O)c3cc(Cl)ccc3[nH]2)cc1
    -7, nt, -3.9, nt, -4%, -0.6, -13
Cc1c(C=O)c2ccccc2n1CC(=O)O
    2, -1.3, 0.5, -1, -6%, ?, -28
CCOC(=O)CSc1nc(C)cc2c1C(=O)OC2
    2, -0.6, 2.1, 7, 0%, -2.3, -5

Shown tab-delimited: part of the list above.
molecule	Calb FLC	HNF4A DNA FP	LANA-H2B inh	B2AR ag	Vif TR-FRET	RanGTP-Impb inh	ALR inh
O=[N+]([O-])c1ccccc1S(=O)(=O)Nc1ccn(Cc2c(F)cccc2Cl)n1	8	-2.7	-5.7	3	7%	6.2	8
CN(c1cccc(NC(=O)c2ccccc2N(C)S(=O)(=O)c2ccccc2)c1)S(C)(=O)=O	5	-1.1	-2.5	-10	-1%	-1.3	0
COc1ccc(C2C(C(=O)c3sc(C)nc3C)=C(O)C(=O)N2CCN(C)C)cc1OC (centres undefined)	15	0.4	-0.9	1	-4%	-1.0	-3
Cc1onc(-c2ccccc2)c1NC(=O)N(CCC#N)Cc1ccccc1	-4	-1.1	2.2	-6	11%	-3.4	-10
C=CC#CC[N+]1(CC#Cc2ccccc2)CCOCC1	10	189	nt	72*	?	1.4	nt
CCOc1ccc(OCCOC(=O)CN2C(=O)NC3(CCCC3)C2=O)cc1	0	-0.3	-4.8	2	-1%	-1.2	nt
S=c1[nH]nc(-c2ccccn2)n1/N=C/c1ccc(Br)s1	?	-0.2	4.1	5	6%	0.5	96*
Oc1ccc(Cl)cc1CNCc1cccc2ccccc12	nt	2.1	-2.7	-2	nt	nt	nt
OC(CNCCN1CCNCC1)Cc1ccccc1 (centres undefined)	nt	-4.0	nt	-42	-6%	nt	nt
Cc1ccc(-n2c(-c3ccc(Cl)cc3)c[n+]3c2CCC3)cc1	5	-4.0	-3.9	-1	-8%	2.6	-12
Fc1cccc(Cl)c1Cn1nnc(-c2ccc3c(c2)OCO3)n1	-23	-1.0	8.1	-3	-1%	-11	0
